Compound activity as filed in PubChem.
Sa helicase inh: S. aureus DNA helicase inhibition. inhibition, %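 (tested at about 80 µM)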. actives 0.05% (n = 120,000). purified S. aureus helicase, fluorescence unwinding assay; about half of the hits fall short of the stated cut;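 active = both duplicates at 50% or more, or one of them with a favoured structure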;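 note: 0% = mean of negative control wells and 100% = mean of positive control wells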
MgrA DNA FP: alters Staphylococcus aureus MgrA binding to DNA; fluorescence polarization; inhibition, %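 (about 10 µg/mL by stock and volumes)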; actives 0.13% (n = 84,000);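 active = above 50% in either of two replicates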;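 note: 0% = protein plus DNA without compound and 100% = DNA alone without protein; higher means less MgrA bound to DNA so lower polarization; one replicate is shown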
* hit, by the source's call; i = inactive; . = not tested or not shown; & = joins results of further samples. Some of the compounds tested; rates above refer to the full screens.

MgrA DNA FP | Sa helicase inh | molecule
1.0 | -5 | C=CCN1C(=O)C2(OCCCO2)c2ccccc21
2.7 | . | COc1ccc(C2CC(c3ccccc3)=NN2C(=O)c2ccc(C)cc2)cc1 (stereo not drawn)
2.5 | 8 | NC(=O)c1ccccc1NS(=O)(=O)c1cccs1
2.7 | . | Nc1c(C(=O)c2ccc(Br)s2)oc2ccc(Br)cc12
. | -2 | N#Cc1ccc(CSc2nnc(N3CCOCC3)n2-c2ccccc2)cc1
-1.8 | 10 | Cc1ccc(CNC(=O)c2ccccc2C(=O)O)cc1
-1.1 | . | N#Cc1ccc(-c2cn3cccnc3n2)cc1
-0.6 | . | N#Cc1[nH]ncc1Br
. | -10 | COc1ccc(NC(=S)NCC(c2ccco2)N(C)C)cc1 (stereo not drawn)
. | 29 | COc1cccc(NC(=O)c2ccccc2N(C)C(=O)CCC(=O)Nc2cccnc2)c1
. | 5 | O=C(NCCN1CCOCC1)c1ccc(CS(=O)c2ccc(Br)cc2)o1 (stereo not drawn)
. | 11 | C=CCn1c(SC(C)C(=O)N2CCCC2)nc2scc(C3CC3)c2c1=O (stereo not drawn)
-5.5 | 7 | C=CCOc1ccc(Cl)cc1C(=O)O
0.0 | -3 | Cn1c(CNc2cccc(C(F)(F)F)c2)n[nH]c1=S
4.8 | 3 | CC(=O)Nc1ccc(N/C=C2/CCCCC2=O)cc1
2.5 | . | CCCCC[C@H](O)/C=C/C=C\C/C=C\C/C=C\CCCC(=O)O
-3.9 | . | Cc1nn(C)c(Oc2cccc(C(F)(F)F)c2)c1C(=O)O
. | -15 | c1ccc(-c2cccs2)nc1
. | -21 | Cc1ccc(S(=O)(=O)N2CCCCC2C(=O)N(C)Cc2ccccc2)cc1 (stereo not drawn)
-2.4 | 3 | S=C(NCCc1ccncc1)Nc1ccccc1
-0.1 | 0 | CC(=O)Nc1nonc1NC(=O)c1ccc(C)cc1
. | -5 | O=C1c2ccccc2C(=O)N1CNc1ccc(I)cc1
. | -5 | N#Cc1ccc(COC(=O)CCN2C(=O)COc3ccccc32)cc1
-1.5 | 5 | CSC1=C(C#N)C(c2ccc(Cl)cc2)CC(=O)N1 (stereo not drawn)
-1.0 | . | Cc1cc(=O)[nH]c2c1c(-c1ccccc1)nn2C

Next section.
MgrA DNA FP | Sa helicase inh | molecule
1.9 | -5 | Cc1ccc(-c2c[n+](=O)c3c(n2[O-])CCC3)cc1
-5.2 | 1 | CCOc1ccc(S(=O)(=O)NC(C)C(=O)NC2CCCC2)cc1 (stereo not drawn)
0.1 | 31 | CCC(=O)C1(Sc2nc3ccccc3[nH]2)CC(C)(C)OC1=O (stereo not drawn)
-1.0 | 1 | c1ccc2cc(Nc3ncnc4[nH]ncc34)ccc2c1
-1.4 | . | O=S(=O)(c1c(Cl)sc(Cl)c1Br)N1CCOCC1
. | 4 | Cc1noc2ncnc(N3CCCC(C(=O)Nc4nccs4)C3)c12 (stereo not drawn)
0.4 | . | O=C(Nc1ccccc1C(F)(F)F)c1ccsc1
. | 7 | CSc1nc2ccccc2n1CC(=O)N1CCc2ccccc21
0.0 | . | Cc1ccc(S(=O)(=O)NCc2c(-c3ccccc3)noc2C)cc1
. | 14 | CCCn1c(SCC(=O)N(C2=CCCCC2)C2CC2)n[nH]c1=O
. | -16 | COCCCN1Cc2cccc(C(=O)O)c2C1=O
0.6 | -9 | CC(CC1C(C#N)=C(N)OC2=C1C(=O)CCC2)c1ccccc1 (stereo not drawn)
. | 10 | CCN1CCN(Cc2c(C)[nH]c3ccc(C)cc3c2=O)CC1
7.2 | 5 | Brc1ccc(C=NC2C3CC4CC(C3)CC2C4)cc1 (stereo not drawn)
-0.8 | . | CC(C)(C)c1ccc(=O)[nH]n1
-3.7 | . | CC(=O)N1CCC(c2nc(-c3ccc(Cl)cc3)no2)CC1
-0.7 | 16 | O=C(c1scc2c1CCCC2)N1CCN(c2ccccc2O)CC1
. | -4 | O=C(NCC(c1ccco1)N1CCCCC1)c1ccc2c(c1)S(=O)(=O)c1ccccc1C2=O (stereo not drawn)
0.4 | . | CCCSc1ccc(C(=O)Nc2ccc(Cl)cc2)cn1
5.8 | -48 | CC1S/C(=C/c2nc3ccccc3s2)NC1=O (stereo not drawn)
-1.9 | -4 | CCN(CC)c1ccc2cc(C(=O)NC3CCCCC3)c(=O)oc2c1
. | -18 | COc1ccc(/C=c2/sc3nc4ccccc4n3c2=O)cc1OC
. | 22 | O=c1c2ccccc2nc2n1CCCCC2
. | 6 | Cc1ccc(C23CCC(=O)N2C(C(=O)NCCc2ccccn2)CS3)cc1 (stereo not drawn)
. | -9 | c1ccc(-c2nc3c4ccccc4nc(NCCN4CCN(c5ccccc5)CC4)n3n2)cc1

Retrieved by structure from the entries so far:
MgrA DNA FP | Sa helicase inh | molecule
-1.4 | . | O=S(=O)(c1c(Cl)sc(Cl)c1Br)N1CCOCC1
2.7 | . | COc1ccc(C2CC(c3ccccc3)=NN2C(=O)c2ccc(C)cc2)cc1 (stereo not drawn)
-5.2 | 1 | CCOc1ccc(S(=O)(=O)NC(C)C(=O)NC2CCCC2)cc1 (stereo not drawn)

6 entries from above, sorted by the value under Sa helicase inh, descending:
MgrA DNA FP | Sa helicase inh | molecule
-0.7 | 16 | O=C(c1scc2c1CCCC2)N1CCN(c2ccccc2O)CC1
-1.0 | 1 | c1ccc2cc(Nc3ncnc4[nH]ncc34)ccc2c1
. | -2 | N#Cc1ccc(CSc2nnc(N3CCOCC3)n2-c2ccccc2)cc1
0.0 | -3 | Cn1c(CNc2cccc(C(F)(F)F)c2)n[nH]c1=S
-1.9 | -4 | CCN(CC)c1ccc2cc(C(=O)NC3CCCCC3)c(=O)oc2c1
1.9 | -5 | Cc1ccc(-c2c[n+](=O)c3c(n2[O-])CCC3)cc1

Later entries
MgrA DNA FP | Sa helicase inh | molecule
0.5 | -4 | O=C(NC1CCCCC1)N(Cc1cc2cc3c(cc2[nH]c1=O)OCCO3)C1CCCCC1
. | -27 | Cc1ccc2[nH]c(=O)c(CNc3ccc(N4CCCCC4)c(CO)c3)cc2c1
-3.4 | . | COC(=O)c1cc(OC)c(OC)cc1NC(C)=O
. | -126 | O=c1ccc2cc3c4c(c2o1)CCCN4CCC3
. | 12 | CCc1ccccc1N(C)S(=O)(=O)c1ccc(-c2cc(C(F)(F)F)no2)s1
. | 2 | C/C(=N\NC(N)=O)c1ccc(C)c(C)c1
. | -10 | CC(OC(=O)c1ccc2c(c1)S(=O)(=O)c1ccccc1C2=O)C(N)=O (stereo not drawn)
-0.2 | . | COC(=O)c1c(C)nn(C(=O)c2ccc(C)cc2)c1-c1cc(C)on1
1.2 | 21 | C=CCc1cccc2cc(C(=O)NC)c(=O)oc12
. | 13 | O=C(Cc1cc(=O)[nH][nH]1)N/N=C/c1cccc2ccccc12
-1.1 | 2 | CCC1CCCCN1C(=O)C1CC(c2cc(Cl)c(OC)cc2OC)=NO1 (stereo not drawn)
0.2 | -14 | CCOc1ccc(CSc2n[nH]c(CC)n2)cc1
0.1 | . | COc1cc(C(F)(F)F)c(C(N)=O)cn1
. | 4 | Cc1nn(-c2ccccc2)c2c1P(=O)(N1CCOCC1)/C(=C1/N(C)c3ccccc3C1(C)C)C=N2 (stereo not drawn)
. | 5 | Cc1ccc2c(c1)c1c(n2CC(O)Cn2c(C)cc(C)nc2=O)C(=O)CCC1 (stereo not drawn)
2.3 | . | c1ccc(-c2cn3nc4c(nc3n2)[nH]c2ccccc24)cc1
. | -9 | CC1CCCC(C)N1C(=O)COC(=O)c1cc(=O)c2ccccc2o1 (stereo not drawn)
-0.6 | . | Cc1ccc(S(=O)(=O)Oc2ccc(CC#N)cc2)cc1
. | -3 | Cc1csc(=Nc2ccccc2F)n1/N=C/c1ccncc1
. | -1 | CC(=O)OC(COc1ccccc1)Cn1nc(C)cc1C (stereo not drawn)
. | 7 | CC(=O)Nc1ccc(S(=O)(=O)Nc2cccc3c(=O)[nH][nH]c(=O)c23)cc1
. | 11 | CCOC(=O)C1=C(CN(C)C2CCCCC2)NC(=O)NC1c1cccs1 (stereo not drawn)
-2.9 | 6 | CCCn1nc(C)cc1N
0.1 | 8 | CCCCn1c2ccccc2c2nc3ccccc3nc21
. | -23 | Cc1ccc(/C=c2\s/c(=C\C(=O)C(C)(C)C)n(CC(=O)NCc3ccco3)c2=O)s1

Compounds shown so far containing a furan ring, fused or not, in the order listed:
MgrA DNA FP | Sa helicase inh | molecule
2.7 | . | Nc1c(C(=O)c2ccc(Br)s2)oc2ccc(Br)cc12
. | -10 | COc1ccc(NC(=S)NCC(c2ccco2)N(C)C)cc1 (stereo not drawn)
. | 5 | O=C(NCCN1CCOCC1)c1ccc(CS(=O)c2ccc(Br)cc2)o1 (stereo not drawn)
. | -4 | O=C(NCC(c1ccco1)N1CCCCC1)c1ccc2c(c1)S(=O)(=O)c1ccccc1C2=O (stereo not drawn)
. | -23 | Cc1ccc(/C=c2\s/c(=C\C(=O)C(C)(C)C)n(CC(=O)NCc3ccco3)c2=O)s1

New compounds follow
MgrA DNA FP | Sa helicase inh | molecule
. | -8 | CCN(C(C)=O)c1nc(CSc2n[nH]c(N)n2)cs1
-2.1 | -9 | COC(=O)COc1ccc2ccccc2c1
3.2 | 3 | COC(=O)c1cc2ccc3c(c2oc1=O)CN(Cc1ccccc1)CO3
. | -10 | Nc1c(C(=O)OCC2CCCO2)c2nc3ccccc3nc2n1-c1ccc2c(c1)OCO2 (stereo not drawn)
-1.8 | -1 | O=C(Cn1c(C(=O)NC2CCCCC2)cc2sccc21)c1ccccc1
. | 0 | C[N+](C)(CCO)CCn1cnc2c(N)ncnc21
. | 11 | Cc1nc(C(C)(C)O)n(-c2ccccc2)n1
12 | i | Cn1cccc1/C=C1\CC/C(=C\c2cccn2C)C1=O
. | -9 | CC(=O)Nc1sc(C)c(C)c1C(=O)OCC(=O)N1CCOCC1
. | -11 | Cc1ccc2[nH]cc(NC(=O)N(C)Cc3ccccc3)c(=O)c2c1
-0.8 | . | CC(C)N1CC(COc2ccc(Br)cc2)OC1=O (stereo not drawn)
-1.8 | . | CC(C)N/C=C1\C(=O)c2ccccc2N(C)S1(=O)=O
13 | 12 | Cc1ccc(SC2=NS(=O)(=O)c3ccccc32)c(C)c1
. | -14 | Nc1nnc(C(F)(F)C(F)(F)C(F)(F)F)s1
1.4 | 13 | O=C1OC(c2cccs2)=N/C1=C\c1cccc(F)c1
. | 10 | CS(=O)(=O)N1CCCc2cc(C(=O)CSc3nnc(-c4ccncc4)n3C3CC3)ccc21
. | -15 | O=C(OCc1nc2ccccc2s1)C1COc2ccccc2O1 (stereo not drawn)
0.7 | 6 | O=C(OCCN=C1NS(=O)(=O)c2ccccc21)c1cccnc1
. | 11 | CCCOc1ccc(Cn2c(=O)oc3ccccc32)cc1
0.8 | . | CSc1sc(C(=O)O)c(-c2cccc(C(F)(F)F)c2)c1C#N
. | -5 | COc1ccc2c(CC(=O)NCC3CCCCC3)coc2c1
. | -4 | CCC(C(=O)Nc1cc(C)nn1-c1nc(C)cc(C)n1)c1ccccc1 (stereo not drawn)
. | 18 | Nc1ccc(I)nc1
-0.2 | 15 | O=C(C1=NNCC1c1ccco1)c1ccccc1 (stereo not drawn)
8.4 | 16 | Nc1nc2ccc(OC(F)(F)F)cc2s1

New compounds follow:
MgrA DNA FP | Sa helicase inh | molecule
. | 6 | CCOC(=O)c1cc(-c2ccc(OC)c(S(=O)(=O)N3CCCCC3)c2)on1
. | 0 | N#Cc1ccc(CSc2nc(O)cc(=O)n2C2CCCC2)cc1
1.6 | . | COc1cc([N+](=O)[O-])c(OC)cc1SCc1nnc(-c2ccccc2C)o1
5.0&1.2 | . | NCC1CCC(C(=O)O)CC1 (stereo not drawn)
. | 1 | N#C/C(=C\c1cc[nH]c1)C(N)=S
. | 9 | O=C(NCc1ccccc1F)c1ccc2c(=O)n(Cc3ccco3)c(=S)[nH]c2c1
0.8 | 6 | CNC(=O)C12CCC(C)(c3nc4cc(C)c(C)cc4nc31)C2(C)C (stereo not drawn)
. | 6 | CC(=O)NC1(c2nnnn2CCOC(=O)Nc2ccc(Cl)cc2)CCCC1
-3.3 | 8 | O=C(OCc1ccccc1)c1ccc2ccccc2n1
. | 7 | CCOc1ccc(CCNC(=O)C2CCN(c3nnc(-n4cccc4)s3)CC2)cc1
0.8 | 4 | COC(=O)C1=CN(C(C(=O)OC)c2ccccc2)C=C(C(=O)OC)C1c1ccc(F)cc1 (stereo not drawn)
0.8 | -10 | CCOc1ccc2nc(C34CC5CC(CC(C5)C3)C4)ccc2c1
. | -5 | CCCOc1ccc(C(=O)Nc2nonc2C)cc1
. | -20 | COC(=O)C1C2C=CC3(CN(c4ccc(OC)cc4)C(=O)C13)O2 (stereo not drawn)
. | 8 | CCOC(=O)c1ccsc1NC(=O)C1CC1
-0.7 | 3 | O=C(CCS(=O)(=O)Cc1ccccc1)N1CCc2ccccc21
. | 1 | CC(C)(C#N)C(C)(C)c1nn[nH]n1
-0.5 | 0 | COc1ccc(NC(=O)C(C)C2SC(=O)NC2=O)cc1 (stereo not drawn)
. | -12 | NC(=O)C1CCCN1Cc1nc(N)nc(Nc2ccccc2)n1 (stereo not drawn)
17 | . | CN(C)CCc1c[nH]c2ccc(C[C@H]3COC(=O)N3)cc12
1.6 | 21 | O=C(Nc1cc(C(F)(F)F)ccc1-n1cncn1)c1ccc(Cl)cc1
-1.1 | 3 | O=C(NC1CC1)c1ccc2c(c1)N(Cc1ccccc1)CCS2
0.8&-5.0 | . | CN(C)CCCN1c2ccccc2Sc2ccc(C(F)(F)F)cc21
0.5 | 10 | CC1CCN(C(=O)c2ccc3c(SCC(=O)O)c4c(nc3c2)CCCC4)CC1
32 | 20 | N#C/C(=C/c1ccc(-c2cc(C(=O)O)ccc2Cl)o1)C(=O)NCCc1c[nH]c2ccccc12
